Choline anaer gr: growth inhibitors of anaerobic choline-fed gram-negatives, minimal medium, absorbance | AID 1963822, 2024 | calls only | actives 0.2% (n = 55,000) | Gram-negative bacterium anaerobic choline minimal medium; active compounds read low; many inactives read as strong as hits in the columns shown;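 active means growth z-score on choline under -2 at 7 or 20 h with little or no fall on glycerol, limits in tiers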;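 further: stock transfer was 300 nL into about 50 µL; the organism is E. coli; final concentration not given here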
Choline anaer gr early: recorded beside Choline anaer gr, whose call it bears; z-score; measured here: choline growth z-score, timepoint 1;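 score of optical density at 7 h as mean of two plates; lower means less growth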
* hit, by the source's call; i = inactive. A portion of the library (hit frequency here may not be typical).

Order of results – Choline anaer gr, Choline anaer gr early
Clc1cc(Nc2c3c(nc4nc(-c5ccccc5)nn24)CCCC3)ccc1N1CCOCC1
→ i, -0.4
CC(Sc1nnc2c3ccccc3nc(-c3ccccc3)n12)C(=O)N1CCCC1 (stereo not given)
→ i, 0.56
CCSc1ncc(Cl)c(C(=O)N(Cc2ccccc2)C2CCS(=O)(=O)C2)n1 (stereo not given)
→ i, 1.17
Cc1cc(C)nc(-n2nc(C)c3c2NC(=O)CC3c2ccc3c(c2)OCO3)n1 (stereo not given)
→ i, -0.71
Cc1ccc(CNc2nc3nc(CNc4ccc(C)cc4C)cc(=O)n3[nH]2)cc1
→ i, -0.16
COc1ccc(CNC(=O)CCn2cnc3ccccc3c2=O)cc1
→ i, -1.06
COc1ccc(Nc2cc(C(=O)NCCc3ccc(C)cc3)c3ccccc3n2)cc1OC
→ i, -1.16
CC(COc1ccccc1Cc1ccccc1)N1CCCCC1 (stereo not given)
→ i, 0.19
COCCN1C(=O)c2cc3sccc3n2CC1(C)C(=O)NC1CCCC1 (stereo not given)
→ i, -0.65
O=C(c1cc2occc2c(Nc2ccc(F)cc2)n1)N1CCN(c2ccc(Cl)cc2)CC1
→ i, 1.51
CC(=O)Nc1ccc(-c2noc(C3CCCN(C(=O)c4cccc(Br)c4)C3)n2)cc1 (stereo not given)
→ i, 0.46
CC(=O)Nc1ccc(-n2c(C)nc3ccccc3c2=O)cc1
→ i, 0.1
COc1ccccc1CNC(=O)CN1C(=O)C(C)=C(c2ccc(C)c(C)c2)S1(=O)=O
→ i, 0.44
COc1ccc(N2CCN(S(=O)(=O)c3cc(-c4nnc(C5CC5)o4)co3)CC2)cc1
→ i, 2.21
O=C(Nc1nnc2n1CCS2)C1c2ccccc2Oc2ccccc21
→ i, -0.46
O=S(=O)(c1ccccc1)c1nc(-c2ccc(F)cc2)oc1NC1CC1
→ i, -0.76
CCn1c2c(c(SC(N)c3cccc4ccccc34)nc1=O)CCC2 (stereo not given)
→ i, 0.48
Cn1c(=O)c2c(C(=O)Nc3cc(F)ccc3F)cc(=O)n(C)c2n(C)c1=O
→ i, -0.25
CCCCC[C@](C)(O)/C=C/[C@H]1C(=O)C[C@H](O)[C@@H]1C/C=C\CCCC(=O)O
→ i, -1.15
CCCC(=O)Oc1cccc(-n2cnnn2)c1
→ i, -0.34
O=C(CN1C(=O)CCn2nc(-c3ccc(Cl)cc3)cc21)NCC1CCCO1 (stereo not given)
→ i, -0.54
CC(C)c1cc(C2CCCN2Cc2ccncc2)no1 (stereo not given)
→ i, 0.89
Cc1ccc(NC(=O)N(C)CCc2noc(C(=O)NCc3ccc(Cl)cc3)n2)cc1C
→ i, -0.68
COc1ccc(-c2c(C)noc2C)cc1S(=O)(=O)N1CCN(c2cccc(Cl)c2)CC1
→ i, 0.45
O=C(Nc1ccc2c(c1)OCO2)Nc1nccn(-c2ccc(F)c(F)c2)c1=O
→ i, 0.44
CCSc1nn(CC(=O)Nc2ccc(OC)c(Cl)c2)c(N)c1S(=O)(=O)c1ccc(OC)cc1
→ i, 1.57
O=C(NC1CC1)c1nc(C(=O)N2CCC3(CC2)OCCO3)cs1
→ i, 0.08
Cc1cccc(N2CCN(C(=O)c3cn(C)c(=O)c4c3c3ccccc3n4C)CC2)c1C
→ i, 0.99
CC1CS(=O)(=O)N(c2ccc(C(=O)NCCc3c[nH]c4ccccc34)c(Cl)c2)C1=O (stereo not given)
→ i, -0.26
O=C(Cn1ncc2c(N3CCCCC3)ncnc21)N1CCC(N2CCCCC2)CC1
→ i, 0.16
CCC(=O)Nc1ccc2c(c1)nc1n2CCN(C(C)C)C1
→ i, 0.32
COc1ccccc1NC(=O)c1nn(C)c(C(F)(F)F)c1Cl
→ i, -1.15
Cc1[nH]nc(-c2ccc(S(=O)(=O)N3CCC(C)CC3)o2)c1C
→ i, -0.16
CCN1c2ccccc2NC2=C(C(=O)CC(C)(C)C2)C1c1ccc(C)cc1 (stereo not given)
→ i, -0.91
Cc1ccccc1-c1noc(CSc2ccc(-c3ccccc3)nn2)n1
→ i, -1.21
CC(C)CC(=O)NC1CC(=O)N(c2ccc3c(c2)OCCO3)C1 (stereo not given)
→ i, -0.87
CCOC(=O)CCNc1cc(N2CCc3ccccc3CC2)nc(-c2ccccn2)n1
→ i, 0.39
CC(C)(C)c1nnc(NC(=O)C2CC(=O)N(CCc3c[nH]c4ccc(F)cc34)C2)s1 (stereo not given)
→ i, -0.8
Cc1ccc(NC(=O)CCn2c(C(F)(F)F)nc3cc(S(=O)(=O)N(C)C)ccc32)cc1C
→ i, 0.08
CCOc1ccc(-n2cc(C(=O)N3CCC(Cc4ccccc4)CC3)c3cc(OC)c(OC)cc3c2=O)cc1
→ i, 0.95
Cc1noc2c1C(c1ccc(C(C)C)cc1)C1=C(CC(c3ccccc3O)CC1=O)N2 (stereo not given)
→ i, -1.06
CCN1CCN(c2cc3c(cc2F)c(=O)c(S(=O)(=O)c2ccccc2)cn3C)CC1
→ i, 0.79
COCCCNC(=O)c1cccc(-c2ccc(S(=O)(=O)N3CCCC3)cc2)c1
→ i, -0.5
O=C(NCCc1ccccc1Cl)c1cc2cc3ccc(Cl)cc3nc2o1
→ i, 0.99
Fc1ccc2nc(CN3CCC4(CC3)OCCO4)cn2c1
→ i, 0.38
Cc1ccc(-c2noc(C3CCCN3S(=O)(=O)c3cc(C)ccc3C)n2)cc1 (stereo not given)
→ i, 1.09
COc1ccc(NC(=O)c2nn(C)c3c2CS(=O)(=O)c2ccccc2-3)c(OC)c1
→ i, -0.78
Cc1nc2nc(CN(C(=O)CC(C)C)c3ccccc3)nn2c(C)c1Cl
→ i, -0.32
CCN1CCCc2cc(C(=O)NC3CCCC3)sc21
→ i, -0.21
Cc1noc2c1C(c1cccc(O)c1)C1=C(CC(c3ccc(O)cc3)CC1=O)N2 (stereo not given)
→ i, -0.2
CCCCNc1cc(C)nc2nc(-c3ccc(C(C)(C)C)cc3)nn12
→ i, 1.48
COc1ccc2[nH]cc(CCN3CC(C(=O)Nc4cc(F)cc(F)c4)CC3=O)c2c1 (stereo not given)
→ i, 0.63
COc1cccc(NC(=O)C2CCN(c3nc4ccccc4nc3C(F)(F)F)CC2)c1
→ i, 1.55
O=S(=O)(c1ccc2nc(N3CCN(Cc4ccc5c(c4)OCO5)CC3)cnc2c1)N1CCCCC1
→ i, 0.7
CCCNC(=O)c1nnn(-c2ccc(C)cc2)c1-c1cccnc1
→ i, 0.32
O=C(c1cnc2ccccc2c1Nc1ccc(Br)cc1)N1CCOCC1
→ i, -0.18
CCC(C)Sc1c(C)cnc2c1c(=O)n(C)c(=O)n2C (stereo not given)
→ i, 0.57
O=C(CSc1nc2ncccc2n2cccc12)NCc1ccc(F)cc1
→ i, -0.12
O=C(Nc1ccc(Cl)cc1)C1CCN(c2nc3ccccc3nc2C(F)(F)F)CC1
→ i, 0.47
CCOC(=O)c1c(NC(=O)C2CC2)sc2c1CCN(Cc1ccccc1)C2
→ i, -0.98

Next section
Order of results – Choline anaer gr, Choline anaer gr early
COc1ccc(N2C(=O)C3N=NN(c4ccc(F)cc4)C3C2=O)cc1 (stereo not given)
→ i, -0.15
CCOC(=O)C1CCN(c2c(NCCc3ccc(OC)c(OC)c3)c(=O)c2=O)CC1
→ i, 0.31
CNCCc1cnc(CCC(c2ccccc2)c2ccccc2)[nH]1
→ i, 0.92
CN(C(=O)CSc1nnc(-c2cccnc2)o1)c1ccccc1
→ i, -2.08
COc1ccc(C)cc1NC(=O)CSc1nc(=O)n(Cc2ccncc2)c2c1CCC2
→ i, -1.19
O=C(c1cc(-c2cccnc2)n(-c2ccccc2)n1)N1CCN(c2ccccc2)CC1
→ i, 0.78
Cc1ccc(Cn2c(=O)c(N3CCC(C(=O)NCCN4CCOCC4)CC3)nc3ccccc32)cc1
→ i, -1.67
O=C(NCc1csc(-c2cccs2)n1)[C@H]1CSCN1C(=O)CCC1CCCC1
→ i, -0.44
CCC(c1ccc(O)cc1)C(CC)c1ccc(O)cc1 (stereo not given)
→ i, 0.21
CC(C)Cn1c(=O)c2ccccc2n2c(=O)n(CC(=O)Nc3ccc4c(c3)OCCO4)nc12
→ i, -1.6
C=CCN1CC(c2nc3ccccc3n2CC(O)COc2ccc(Cl)c(C)c2)CC1=O (stereo not given)
→ i, -1.66
Cc1ccc(C)c(NC(=O)N2CC=C(c3c[nH]c4ccccc34)CC2)c1
→ i, -0.53
Cc1cccc(-c2noc(-c3cccnc3N3CCC(C(=O)NCc4ccc(F)cc4)CC3)n2)c1
→ i, 0.13
Cc1nn(C)c(C)c1CNC(=O)c1nnc(C(=O)Nc2cccc(Cl)c2)s1
→ i, -0.12
Cc1ccc(-c2noc(-c3cn(Cc4ccc(NC(=O)Nc5ccccc5)cc4)cn3)n2)cc1
→ i, 0
Cc1ccsc1CN(C(=O)c1cc(-c2ccc3c(c2)OCCO3)on1)C1CCS(=O)(=O)C1 (stereo not given)
→ i, -0.69
CCC(C)NC(=O)Cn1c(=O)n(CC(C)C)c(=O)c2nscc21 (stereo not given)
→ i, 1.44
O=S(=O)(Cc1ccccc1)N1CC(OCc2ccc(Cl)cc2)C1
→ i, 0.98
CCOc1c(OC)cccc1C1CC(=O)Nc2c(-c3ccccc3)csc21 (stereo not given)
→ i, 0.38
Cc1ccc(-c2nc(CSCC(=O)N(C)C)no2)cc1
→ i, -1.57
CC(O)c1nc2ccccc2n1CC(=O)N(c1ccccc1)C(C)C (stereo not given)
→ i, 0.07
COc1cccc(C2CC(=O)Nc3c2c(C)nn3-c2ccc3nnc(C)n3n2)c1OC (stereo not given)
→ i, -0.56
O=C(c1cc(S(=O)(=O)N2CCCC(C(=O)N3CCCCC3)C2)c[nH]1)N1CCCC1 (stereo not given)
→ i, -0.51
CN(C)C(=O)c1ccc2c(c1)N(CC(=O)N1CCN(c3ccccc3)CC1)C(=O)C1CCCCN21 (stereo not given)
→ i, -1.48
CNC(=O)c1nc(-c2ccsc2)nc2c1OCCO2
→ i, 0.1
CCCOc1ccc(-c2noc(Cc3nc(-c4ccccc4)cs3)n2)cc1
→ i, 0.81
CCCS(=O)(=O)N1CCCN(C2=NS(=O)(=O)C(c3ccc(C)cc3)=C2C)CC1
→ i, 0.08
CCC(C(=O)Nc1ccc2c(c1)OCO2)n1nc(-c2ccc(C)cc2)c2c(c1=O)CCCC2 (stereo not given)
→ i, -1.06
COc1cccc(S(=O)(=O)Nc2noc3ccccc23)c1
→ i, -0.64
COC(=O)c1c(NC(=O)N2CCCC2c2ccccc2Cl)sc2c1CCCC2 (stereo not given)
→ i, -1.32
O=C(NCc1ccc(F)cc1)N1CCC(CN2CCOCC2)CC1
→ i, 1.32
CCCCn1c(=O)c2sccc2n2c(SCc3ccccc3C)nnc12
→ i, 0.95
O=C(CC1CCN(C(=O)Nc2cccc(Cl)c2)CC1)N1CCN(c2ccccn2)CC1
→ i, -0.83
CC1CCN(C(=O)c2csc(S(=O)(=O)N3CCN(C4CCCCC4)CC3)c2)CC1
→ i, -0.9
Cc1[nH]c(/C=C2\C(=O)Nc3ccc(S(=O)(=O)Cc4c(Cl)cccc4Cl)cc32)c(C)c1C(=O)N1CCC[C@@H]1CN1CCCC1
→ i, 0.29
Cc1nc2sccn2c(=O)c1NC(=O)c1ccccc1Br
→ i, -0.5
CC(C)c1cccc(C(C)C)c1N1C(=O)c2ccc(O)cc2C1=O
→ i, 0.38
COc1ccc(-n2ccc(=O)c(-c3nc(-c4ccccc4)no3)n2)cc1
→ i, -0.36
O=C(COc1cccc2ccc(N3CCCC3)nc12)Nc1ccc(Cl)cc1
→ i, 0.98
Cc1cccc(C)c1NC(=O)C1CCCN(S(=O)(=O)Cc2ccc(F)cc2)C1 (stereo not given)
→ i, 1.01
Cn1ccc2cc(S(=O)(=O)N3CCN(C(=O)Nc4ccccc4Br)CC3)ccc21
→ i, 0.75
Fc1ccc([C@H]2C[C@@H](c3ccccc3)Nc3nnnn32)cc1
→ i, -1.74
CCCn1ccc(NS(C)(=O)=O)n1
→ i, -0.06
CCS(=O)(=O)N1CCc2nc(-c3ccc(OC)c(OC)c3)sc2C1
→ i, -1.08
NC(=NCCCCCCN=C(N)/N=C(\N)Nc1ccc(Cl)cc1)/N=C(\N)Nc1ccc(Cl)cc1
→ i, 0.42
CCn1ccc(-c2nc(CCS(=O)(=O)c3ccccc3)no2)n1
→ i, -0.18
O=C(C1CCN(c2ccc(-c3ccccc3)nn2)CC1)N1CCCC1
→ i, -0.02
NCCNS(=O)(=O)c1cccc2cnccc12
→ i, 0.38
Cc1cc2n(n1)CC(C)(C(=O)NCc1ccccc1)N(c1ccc(F)cc1)C2=O (stereo not given)
→ i, 0.45
